Compound activity as filed in PubChem BioAssay.
RN4220 kill = growth inhibition of S. aureus RN4220, primary screen, OD600 | 16 h | 330,000 tested, 0.33% active | inhibition, % (no concentration beside the values);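 active = z-score of -3 or lower and OD600 up to 0.18 on both plates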;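 also: plate controls were untreated cells for no effect and reference antibiotic for full effect; stock transfer was 100 nL into about 80 µL; one replicate is shown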
Bead autofluor = flagged as autofluorescent in microsphere protease counterscreen | compound autofluorescence counterscreen, microsphere flow cytometry; active compounds read high | fluorescence intensity (concentration not given with the values) | 360,000 tested, 3.1% active;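 active = at least 3 SD above the mean of all compounds, about 16000 in these data; inconclusive = too few beads counted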;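 also: 100 nL of 1 mM stock went into each well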
BJeLR viability = MLPCN primary cell-based screen for lethality selective to Ras in HRASV12 cells. BJeLR (HRASV12) viability, CellTiter-Glo ATP luminescence, 48 h; reference of the scale not given here. inhibition, % (test concentration not listed). 300,000 tested, 0.17% active;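 active = replicate mean above 50%; inconclusive = above 50% but judged a plate artefact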;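 also: 50 nL library stock added to about 25 µL; numbers are from one replicate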
ugtP null kill = growth inhibition of ugtP-null S. aureus, primary screen, RN4220 ugtP deletion, OD600 | 16 h; some inactives read as strong as hits | growth inhibition, % (no concentration beside the values) | 330,000 tested, 0.54% active;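 active = z-score under -3 and OD600 up to 0.15 on both plates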;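 also: plate controls were untreated wells for no effect and antibiotic for full effect; wells of about 80 µL received 100 nL stock; the first replicate is given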
Mtb hypoxia inh = PubChem AID 1159583; fluorescence inhibition, % (test concentration not listed); M. tuberculosis hypoxia-regulated fluorescent reporter, fluorescence; 300,000 tested, 0.1% active;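 active = 35 to 45% if threefold the growth effect, above 45% if 1.5-fold the growth effect; inactive = the rest, general growth blockers included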;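 also: wells of about 50 µL received 100 nL stock; 0% = vehicle wells and 100% = reference inhibitor wells; whole bacteria with a GFP reporter of the hypoxia response; strong numbers were not always called active; many hits fall short of the cut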
PrP UTR inh = inhibition of PrP 5' UTR reporter expression | cell-based PrP 5' UTR mRNA reporter, plate reader | inhibition, % (no concentration beside the values) | 340,000 tested, 0.35% active;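 active = every replicate at 50% or more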;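 also: 0 = median of the neutral control wells; tested in H4 reporter cells; numbers are from one replicate; inactives centre near -14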
Mtb hypoxia inh growth = further read-out of Mtb hypoxia inh, marked with its call; growth inhibition, %; measured here: M. tuberculosis growth (absorbance);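 0% = vehicle and 100% = reference antibiotic; read after six days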
* marks the source's active call; other numbers are inactive results; u = inconclusive; x = not tested or not shown.

Order of results: Mtb hypoxia inh growth	PrP UTR inh	BJeLR viability	Bead autofluor	ugtP null kill	RN4220 kill	Mtb hypoxia inh
- CC(C)(C)C(=O)CN1C(=O)NC(C)(Cc2ccc3c(c2)OCO3)C1=O (stereo not given)
→ -3	1	7	3445	-1	-1.7	2
- O=S(=O)(c1ccc(Cl)cc1)N1CCCc2ccccc21
→ 5	-3	-1	3196	8	5.9	5
- CN(C=O)CP(=O)(O)CN1CCCCC1
→ x	x	2	x	0	0.0	x
- Cc1ccc(S(=O)(=O)N2CCOC2CNC(=O)C(=O)NCc2ccc(Cl)cc2)cc1 (stereo not given)
→ -2	-1	-2	4332	0	2.5	7
- CCOc1ccccc1CN1CCNC(=O)C1CC(=O)NCCN1CCOC1=O (stereo not given)
→ 2	-4	-3	5793	1	2.3	10
- CC(=O)N1CCSc2ccc(S(=O)(=O)Nc3ccccc3C)cc21
→ 0	0	8	6070	-10	0.8	-10
- CC(CC(=O)Nc1ccc(N(C)C)cc1)=NNC(=O)c1ccc(F)cc1
→ -3	x	x	x	-4	0.7	-1
- O=C(Cc1ccc(F)cc1)N1CCN=C1SCc1cccc([N+](=O)[O-])c1
→ 5	-8	16	3928	1	5.2	12
- CCOC(=O)C1=C(O)C(=O)N(CCCn2ccnc2)C1c1ccc(C)cc1 (stereo not given)
→ -3	-5	11	3494	-7	5.0	-1
- COC(=O)c1cc(F)c(-n2cncn2)c(F)c1
→ 1	-12	-1	16245*	-3	-0.8	0
- CCCCn1c2ccc(F)cc2c2nnc(SCCN3CCOCC3)nc21
→ 14	-31	-6	3653	17	2.2	10
- COc1ccc(NC(=O)C2CCC(=O)N2S(=O)(=O)c2ccc(C)cc2)cc1Cl (stereo not given)
→ 7	-11	-14	3881	0	-7.4	5
- CN(CC(=O)Nc1cc(Cl)ccc1C#N)C1CCS(=O)(=O)C1 (stereo not given)
→ 9	1	x	4213	-1	1.6	15
- CSc1ccc(S(=O)(=O)Nc2ccccc2C(=O)N2CCOCC2)cc1
→ 0	-6	11	5334	3	1.4	2
- COCCN(C(=O)C1CC(=O)N(Cc2ccc(C)cc2)C1)c1c(N)n(CC(C)C)c(=O)[nH]c1=O (stereo not given)
→ 2	x	x	4965	1	0.3	10
- Oc1oc(-c2ccccc2)nc1C=Nc1cccc2ccccc12
→ 8	14	2	7754	2	28	2
- N#Cc1c(NC(=O)CSc2nc(N)cc(=O)[nH]2)sc2c1CCCCCC2
→ 8	-17	3	10934	12	7.3	8
- O=C(/C=C/c1ccc(F)cc1)N1CCN(c2ccccn2)CC1
→ 12	-21	4	1923	6	2.5	1
- CC(C)(C)OC(=O)NCCCCCNC(=O)c1[nH]cnc1C(=O)NC(Cc1ccccc1)C(=O)OCc1ccccc1 (stereo not given)
→ 5	x	x	x	-24	0.4	12
- CCNC(=O)N1C(CC(=O)OCC)C(=O)NC2CCCCC21 (stereo not given)
→ x	-8	-6	4871	5	-1.5	x

Single values from the results shown.
In RN4220 kill, COc1ccc(NC(=O)C2CCC(=O)N2S(=O)(=O)c2ccc(C)cc2)cc1Cl (stereo not given) shows -7.4
In PrP UTR inh, O=C(/C=C/c1ccc(F)cc1)N1CCN(c2ccccn2)CC1 shows -21
In Bead autofluor, CCNC(=O)N1C(CC(=O)OCC)C(=O)NC2CCCCC21 (stereo not given) shows 4871
In Mtb hypoxia inh, Oc1oc(-c2ccccc2)nc1C=Nc1cccc2ccccc12 shows 2

More entries:
Order of results: Mtb hypoxia inh growth	PrP UTR inh	BJeLR viability	Bead autofluor	ugtP null kill	RN4220 kill	Mtb hypoxia inh
- CC(=O)Nc1ccc(S(=O)(=O)N(C)CC(=O)NNC(=O)c2cccs2)cc1
→ -5	-6	x	8343	-3	1.6	1
- CNC(=O)CSc1nnc(C(C)C)n1C
→ 11	-37	-8	4472	-4	2.6	17
- COc1ccc(-n2nc3c(c2NC(=O)C24CC5CC(CC(C5)C2)C4)CS(=O)C3)cc1 (stereo not given)
→ -5	-12	-5	4240	5	5.1	1
- COc1ccccc1CN1C(=NC(=O)CCC2CCCC2)SC2CS(=O)(=O)CC21 (stereo not given)
→ x	-17	6	5786	x	x	x
- COc1ccc(CNCC(O)(c2ccc(Cl)cc2)c2ccc(Cl)cc2)cc1
→ 1	-16	-2	21174*	-30	-4.2	1
- Cc1nc(-c2ccc(NC(=O)c3ccccc3C)cc2)cs1
→ 11	-57	4	4728	-1	8.4	15
- CCOC(=O)C1C(=O)OC2(CCOC(C)(C)C2)C1C(=O)OCC (stereo not given)
→ x	10	x	4533	-7	0.2	x
- CC(C)OC(=O)c1c(N)n(CCCN2CCOCC2)c2nc3ccccc3nc12
→ x	8	3	3587	8	8.6	x
- Cc1ccc(NC(=O)CN(C)S(=O)(=O)c2cccc3cccnc23)cc1
→ x	-11	0	5577	-8	5.7	x
- COC(=O)c1cccc(NC(=O)CN2CCc3ccccc3C2)c1
→ 6	-21	-2	4025	5	7.3	-5

Continued; it opens with the 3 that closed the last part.
Order of results: Mtb hypoxia inh growth	PrP UTR inh	BJeLR viability	Bead autofluor	ugtP null kill	RN4220 kill	Mtb hypoxia inh
- CC(C)OC(=O)c1c(N)n(CCCN2CCOCC2)c2nc3ccccc3nc12
→ x	8	3	3587	8	8.6	x
- Cc1ccc(NC(=O)CN(C)S(=O)(=O)c2cccc3cccnc23)cc1
→ x	-11	0	5577	-8	5.7	x
- COC(=O)c1cccc(NC(=O)CN2CCc3ccccc3C2)c1
→ 6	-21	-2	4025	5	7.3	-5
- Cc1ccc(N2CC(C(=O)N3CCC4(CC3)CC(=O)c3ccccc3O4)CC2=O)cc1C (stereo not given)
→ 5	-13	2	u	8	3.8	11
- Cc1ccccc1CN1CCN(CCCc2ccccc2)C(CCO)C1 (stereo not given)
→ -4	-29	-4	4217	5	1.5	9
- C[C@]12C(=O)N(c3cccc(F)c3)C(=O)N1[C@@H]1c3ccccc3OC[C@@H]1[C@H]2c1ccccc1
→ x	-7	4	3310	x	x	x
- O=C(CCN1CCN(CCO)CC1)Nc1cccc(Br)c1
→ 8	-14	2	4462	-3	2.1	6
- CCCN1CCC(NC(=O)Nc2ccc(F)cc2F)CC1
→ 2	-4	2	9312	-3	0.5	-6
- Cc1cc2c(sc3c(C)ccc(C)c32)c(C)n1
→ -12	-15	2	3844	60	35	1
- CSC1=N/C(=C\c2ccccc2Cl)C(=O)N1N(C)C
→ 2	-26	-5	5091	48	4.4	10
- O=C(CSc1ccc(F)cc1)NCC1(N2CCOCC2)CCCCC1
→ 4	-30	5	5959	0	6.5	1
- COc1ccc(-c2noc(CN(C)Cc3ccccc3)n2)c(OC)c1OC
→ -7	-17	0	3238	-2	0.0	-12
- COc1ccc(NC(=O)c2ccc(-c3ccccc3Cl)o2)cc1
→ 0	-48	-5	3012	15	9.7	-4
- CC1(C)CC(=O)C2=C(C1)OC(/N=C/N1CCCC1)=C(C#N)C2c1ccccc1 (stereo not given)
→ x	-7	-6	5383	x	x	x
- Cc1ccc(C2CC(C(F)(F)F)n3nc(C(=O)NCc4c(C)nn(C)c4C)c(Cl)c3N2)cc1 (stereo not given)
→ 7	-16	9	5487	-1	1.6	3
- COc1ccc(OC)c(C(C)NC(=S)NC2CCCCC2)c1 (stereo not given)
→ -3	-50	9	6079	0	0.2	-1
- COC(=O)CSc1nnc(CNC(=O)c2cc(OC)cc(OC)c2)n1-c1ccc(F)cc1
→ 11	-12	3	4396	5	3.3	-4
- Cc1cc2nc(-c3ccc(SCC(=O)N4CCOCC4)nc3)[nH]c2cc1C
→ 9	-28	11	11858	-5	-3.2	4
- COC(=O)CCCCCN1C(=O)NC(C2CC2)C(C(=O)OCc2ccccc2)=C1C (stereo not given)
→ 9	-14	-8	3978	-12	-7.5	-2
- Cc1nc(-c2ccc(F)cc2)c(CC(=O)N(C)CC(=O)Nc2ccc(F)cc2)s1
→ 9	-21	0	x	2	2.8	8
- Cc1cc(/C=C2\SC(=Nc3ccccc3)NC2=O)c(C)n1-c1ccc(S(N)(=O)=O)cc1
→ x	-21	22	4195	-25	1.3	x
- CC(=O)CSc1nc2c(c(=O)[nH]c(=O)n2C)n1CCCc1ccccc1
→ 12	-14	-5	4258	10	2.3	0
- O=C(O)CC(CC(=O)Nc1ccc(-n2ccc(C(F)(F)F)n2)cc1)c1ccccc1 (stereo not given)
→ 15	-2	-5	4399	10	0.6	13
- Cc1ccc(NS(=O)(=O)c2ccc(N/N=C/c3ccncc3)c([N+](=O)[O-])c2)c(C)c1
→ x	-20	-3	1879	x	x	x
- Cc1ccc(S(=O)(=O)N2CCN(S(=O)(=O)c3ccc(C)cc3)C3OCCOC32)cc1 (stereo not given)
→ -2	-3	2	16671*	3	-0.3	-2
- Oc1c(CN2CCOCC2)cc(-c2ccccc2)cc1CN1CCOCC1
→ 3	-26	10	10339	-3	0.4	-1
- N#CNC(=Nc1ccccc1)SCc1ccc(C(=O)O)cc1
→ -3	-12	0	3436	14	7.0	6
- O=C1COc2ccc(C(=O)COC(=O)CNS(=O)(=O)c3cccc(F)c3)cc2N1
→ 7	x	x	x	2	3.1	13
- O=C(Nc1ccc(C(=O)O)cc1)Nc1ccc(F)cc1F
→ -3	-8	12	2704	-3	1.4	-12
- CSCCC(NS(=O)(=O)c1ccc(F)cc1)C(=O)NCc1ccc(S(N)(=O)=O)cc1 (stereo not given)
→ 8	-24	6	3349	9	4.7	14
- O=S(=O)(CCC1CCCCN1)c1ccccc1 (stereo not given)
→ 3	6	-1	3603	2	0.2	11
- CC(C)(C)n1ncc2c(=O)n(CC(=O)N3CCCCCC3)cnc21
→ 12	-4	2	x	-2	-14	15
- Cc1ccccc1-n1c(=O)n(Cc2ccc(C(=O)O)cc2)c(=O)c2[nH]cnc21
→ 5	-18	0	3523	5	3.5	8
- CCN1C(=O)[C@H]2[C@@H](c3ccc(Cl)cc3)N3C(=O)CN(CCOC)C(=O)[C@@]3(Cc3ccccc3)[C@H]2C1=O
→ x	-26	0	3742	x	x	x
- COC(=O)CCNC(=O)Cc1c(C)n(C(=O)c2ccc(Cl)cc2)c2ccc(OC)cc12
→ 2	-11	-3	3684	0	2.0	14
- N#CCOc1nc(N2CCCC2)nc(N2CCCC2)n1
→ 14	0	1	4231	3	3.6	15
- CC(Oc1ccc(Br)cc1)C(=O)Nc1ccc(N2CCOCC2)cc1N1CCOCC1 (stereo not given)
→ 7	0	4	5807	-5	-1.2	-12
- Cc1ccc(C)c(NC(=O)Cn2c(=O)n(-c3ccc(CC(=O)NCC4CCCO4)cc3)c(=O)c3ccccc32)c1 (stereo not given)
→ -8	x	6	x	8	-1.0	5
- Cc1ccccc1C(=O)N1CCN(c2ccc(NC(=S)NC(=O)c3ccco3)cc2)CC1
→ x	-2	5	5359	77	4.5	x
- [N-]=[N+]=NC1CC(CO)OC1n1ccc(=O)[nH]c1=O (stereo not given)
→ -5	-7	1	5817	1	1.4	4
- COc1ccc(C=O)cc1COc1ccc(C)cc1[N+](=O)[O-]
→ x	-22	-3	4064	8	5.5	x
- CCOc1ccc(-c2nc[nH]c2[N+](=O)[O-])cc1
→ 9	-26	3	3600	7	-1.1	12
- COc1cccc(CNCC(O)(c2ccc(Cl)cc2)c2ccc(Cl)cc2)c1
→ 2	0	-2	23322*	-26	-4.7	0
- CCCc1nnc(SCC(=O)N2CCCCC2)n1CCCOC
→ 13	-20	-3	3997	-8	4.4	2
- Cc1ccc(NC(=O)COC(=O)c2ccc(Br)o2)cc1S(=O)(=O)N1CCCCC1
→ 4	-16	x	5244	5	4.5	2
- COc1ccccc1Nc1nc(-c2ccccc2O)nc2ccccc12
→ 8	-25	6	4212	38	17	1
- O=S(=O)(Nc1ccc2nc(N3CCOCC3)sc2c1)c1ccc(Cl)cc1
→ 0	-14	x	u	-3	-0.6	-4
- CC(C)(C)NN=Cc1cc(Cl)cc([N+](=O)[O-])c1O
→ 5	x	x	x	13	-3.8	13
- CCC(C)(C)NC(=O)C(c1cccs1)N(CC1CCCO1)C(=O)Cn1nnc2ccccc21 (stereo not given)
→ 13	-34	-2	3147	-4	-2.9	2
- CC(C)(Oc1ccc(Cl)cc1)C(=O)OCC(=O)N1CCN(c2ccccc2)CC1
→ 5	-8	6	4985	9	0.9	4
- CCCCn1nnnc1NCc1ccc(C)s1
→ x	-12	9	9654	-3	-1.2	x
- CN1Cc2cc(C(=O)c3ccccc3O)cnc2NC1=O
→ x	-9	-6	2807	0	3.8	x
- CCOC(=O)C1CCCN(C(=O)c2ccccc2SCCOC)C1 (stereo not given)
→ -5	-29	-11	11439	3	4.8	-2

The order is random; overall some 4.1% were active at least once.
